T cruzi repl – inhibitors of intracellular T. cruzi growth, primary screen, luminescence, NIH3T3 host cells | inhibition, % (no concentration beside the values) | T. cruzi beta-gal in NIH3T3, 90 h | hit rate 1.4% among 300,000;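 active = mean inhibition across valid replicates above about 55%, limit read from the data; inconclusive = mean below that limit but half or more replicates reach it; inactive = mean below it, under half of replicates reach it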;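 also: signal also drops with host cell toxicity which is not excluded here; 0% = plate median of DMSO wells and 100% = zero luminescence signal; higher percent means less beta-gal luminescence so fewer parasites; stock transfer was 50 nL into about 50 µL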
RanGTP-Impb inh – inhibitors of RanGTP-importin-beta interaction, primary screen, biochemical, FRET, CFP-Ran, YFP-importin-beta, homogeneous; Ran GTPase (GTP-bound) - importin-beta complex; cell-free CFP-Ran/YFP-importin-beta FRET ratio; inhibition, % (no concentration beside the values); hit rate 1.1% among 300,000; AID 2216, 2009;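 active = most replicates above 15%; inconclusive = exactly half above 15%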;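 also: 0% = DMSO wells and 100% = Ran loaded with GDP instead of GTP; wells of about 40 µL received 100 nL stock; the first replicate is given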
ALR H2O2 inh – inhibitors of human ALR sulfhydryl oxidase, primary screen, biochemical, H2O2 detection, HRP-luminol luminescence, single point. inhibition, % (concentration not given with the values). purified ALR, DTT oxidation. FAD-linked sulfhydryl oxidase ALR (Homo sapiens), P55789. hit rate 3.8% among 290,000. AID 485317, 2010;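 active = mean and each replicate at 75% or more; inconclusive = only one of the two met; inactive = neither met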;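 also: stock transfer was 7.5 nL into about 7.5 µL; 0% = neutral wells and 100% = wells with inactivated enzyme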
Target sequence (P55789 whole entry, looked up): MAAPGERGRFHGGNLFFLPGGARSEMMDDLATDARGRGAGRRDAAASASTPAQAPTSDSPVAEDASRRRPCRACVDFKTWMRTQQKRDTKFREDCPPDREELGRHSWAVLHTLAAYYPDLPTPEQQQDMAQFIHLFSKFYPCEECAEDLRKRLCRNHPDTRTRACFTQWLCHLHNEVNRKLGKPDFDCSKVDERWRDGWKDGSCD
FGF22 binding – binders of human FGF22 protein, primary screen, FGF22 synaptogenesis inhibitor project, biophysical, thermal shift, single point | calls only at 9.99 µM | hit rate 1.5% among 340,000 | recombinant FGF22 thermal shift, SYPRO orange fluorescence; percent of sucrose octasulfate shift, DMSO zero | AID 651658, 2012;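 active = melting point raised past a set limit in the mean and every replicate; inconclusive = no clear call; three in four hits are not shown here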
Target sequence (Q9HCT0 whole entry, looked up): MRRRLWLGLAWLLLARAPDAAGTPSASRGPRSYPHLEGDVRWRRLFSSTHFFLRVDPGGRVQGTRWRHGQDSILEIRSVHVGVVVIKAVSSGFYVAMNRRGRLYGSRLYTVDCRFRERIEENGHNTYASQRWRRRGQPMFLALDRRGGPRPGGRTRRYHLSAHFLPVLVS
Calb FLC – C. albicans growth inhibition with fluconazole, primary screen, CaCi-2 strain, Alamar Blue fluorescence; AID 1979, 2009; growth inhibition, % (test concentration not listed); C. albicans CaCi-2 (fluconazole-resistant clinical isolate) + fluconazole, 48 h; hit rate 0.57% among 300,000;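 active = most replicates above 75%; inconclusive = exactly half above 75%; inactive = most below 75%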;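 also: all wells also contain fluconazole at 8 µg/ml as a sub-toxic cotreatment; 0% = median of DMSO wells and 100% = median of geldanamycin control wells; wells of about 8 µL received 7.5 nL stock; the first replicate is given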
Beta apoptosis – inhibitors of cytokine-induced beta cell apoptosis, primary screen, luminescence. INS-1E cytokine-induced death, ATP luminescence, 48 h; percent of positive-control rescue, neutral wells zero. protection from apoptosis, % (no concentration beside the values). hit rate 0.8% among 300,000;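 active = all replicates at 75% or more, or half of them and the mean; inconclusive = half reach 75% but not the mean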;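 also: 0% = cytokine-treated negative control wells and 100% = positive control rescue; higher means more ATP so stronger rescue from cytokine killing; wells of about 40 µL received 100 nL stock; the first replicate is given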
MLL AF4-AF9 inh – inhibitors of AF4 peptide binding to AF9, primary screen, biochemical, AlphaScreen, biotin-AF4 peptide, FLAG-AF9, single point; Protein AF-9 (Homo sapiens), P42568; inhibition, % at 10 µM; hit rate 0.47% among 350,000; AID 651704, 2012;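 active = every replicate reaching a set inhibition limit, whatever the replicate mean, cut at about 25% in these data; inconclusive = mean inhibition reaches that limit but some replicates miss it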;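 also: 0% = plate neutral control median and 100% = total signal loss; the record names both 10 and 1 µM as test concentration; the first replicate is given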
Target sequence (P42568 whole entry, looked up): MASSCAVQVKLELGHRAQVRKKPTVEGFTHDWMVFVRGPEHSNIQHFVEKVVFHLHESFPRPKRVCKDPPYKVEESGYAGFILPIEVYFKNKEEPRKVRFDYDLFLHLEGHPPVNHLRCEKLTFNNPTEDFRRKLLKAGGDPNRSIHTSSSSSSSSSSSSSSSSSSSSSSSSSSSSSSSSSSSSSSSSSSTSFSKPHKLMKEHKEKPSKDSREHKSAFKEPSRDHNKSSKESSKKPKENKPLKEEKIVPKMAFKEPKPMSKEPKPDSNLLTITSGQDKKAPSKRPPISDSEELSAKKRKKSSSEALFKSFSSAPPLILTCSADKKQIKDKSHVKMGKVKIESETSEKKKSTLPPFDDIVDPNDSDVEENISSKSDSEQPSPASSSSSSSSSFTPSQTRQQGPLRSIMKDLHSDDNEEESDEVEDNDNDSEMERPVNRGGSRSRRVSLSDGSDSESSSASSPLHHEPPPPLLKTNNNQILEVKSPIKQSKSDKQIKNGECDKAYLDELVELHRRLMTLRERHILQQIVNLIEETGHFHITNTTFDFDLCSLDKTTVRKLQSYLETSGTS
rRNA inh HTS – reduced GFP signal of wild-type E. coli, primary screen, bacterial rRNA inhibitor project, GFP/RFP fluorescence, OD600, single point | AID 720706, 2013 | hit rate 1.6% among 350,000 | E. coli WT GFP vs humanized-ribosome RFP mutants, 24 h; stronger effect = lower value; DMSO median 0, no signal -100 | GFP signal change (wild-type ribosome), % (test concentration not listed);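 active = significant combined selectivity score with lowered wild-type GFP, culture density cut under 30%, mutant RFP and density less affected; inactive = any of these conditions unmet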; also: one replicate is shown; some compounds called inactive have numbers as strong as hits
rRNA inh HTS OD600 – recorded beside rRNA inh HTS, whose call it bears; OD600 change, %; measured here: OD600 growth;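 optical density of the mix in the first replicate; 0 = DMSO median and -100 = no signal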
rRNA inh HTS RFP – also measured in rRNA inh HTS; calls as there; RFP signal change, %; measured here: RFP humanized mutant strains;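 first replicate; 0 = DMSO median and -100 = no signal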
* = called active by the depositor; i = inactive; u = inconclusive; x = not tested or not shown. This is a subset; count on the stated rates, not on these rows.

SMILES | T cruzi repl | RanGTP-Impb inh | ALR H2O2 inh | FGF22 binding | Calb FLC | Beta apoptosis | MLL AF4-AF9 inh | rRNA inh HTS | rRNA inh HTS OD600 | rRNA inh HTS RFP
COc1cccc(N=C2SC(C(=O)Nc3ccccc3F)CC(=O)N2C)c1 (stereo not given) | -10 | u | 2 | x | -14 | x | x | x | x | x
C=CCOc1ccc(/C=C/C(=O)OCC(=O)NCCC2=CCCCC2)cc1 | 2 | -4.3 | -2 | i | -12 | -9 | -3.4 | 2 | -5 | -0.2
Cc1ccsc1/C=N/NC(=O)CNC(=O)c1ccc(S(=O)(=O)N(C)C)cc1 | -9 | -5.1 | -3 | i | 1 | 0 | 1.5 | 14 | 11 | 2.6
CCCNC(=O)c1ccc(C)c(NC(=O)C2=C(C)OCCS2)c1 | 7 | 2.5 | -1 | i | -2 | -4 | -1.0 | 9 | 3 | 2.1
CC1CCCC(NC(=O)c2ccc3c(c2)OCCO3)C1C (stereo not given) | x | x | 1 | i | x | 2 | 1.1 | -1 | -4 | 1.2
O=C(OCc1ccccc1)C1CCCN1C(=O)c1cccs1 (stereo not given) | -8 | -3.5 | -7 | x | -1 | -9 | x | x | x | x
COc1ccccc1NC(=O)c1cccc(S(=O)(=O)N2CCN(c3ccccc3)CC2)c1 | x | x | -2 | i | x | -1 | 0.4 | 3 | 1 | -4.8
CCNc1nc(NCC)n2c(SCC(=O)Nc3ccc(C)c(C)c3)nnc2n1 | -1 | 2.2 | x | i | 1 | -2 | -1.8 | 14 | 16 | 2.7
CCN(CC)CCOC(=O)c1c(C)oc2ccc(O)cc12 | 4 | 1.8 | 36 | x | 4 | -2 | x | x | x | x
O=C(NCCc1ccccc1)C1CCC(Cn2c(=O)c3ccccc3n(Cc3cccc(Cl)c3)c2=O)CC1 (stereo not given) | -6 | -1.3 | x | i | -1 | 14 | -33 | 9 | 5 | 0.5
COc1ccccc1/C=N/NC(=O)C(C)Cn1cnc2ccccc21 (stereo not given) | -26 | -2.0 | -13 | i | -20 | -2 | 4.6 | 7 | -2 | -3.6
Cc1nnc(Nc2ccc(S(N)(=O)=O)cc2)c2ccccc12 | -8 | -0.2 | -5 | i | -7 | x | -0.9 | -8 | -6 | -4.6
CCOC(=O)C1=C(COC(=O)Cc2ccccc2F)NC(=O)NC1C (stereo not given) | -11 | 0.7 | 2 | i | -8 | 0 | 0.9 | 5 | 3 | 0.4
O=C(O)COCC(=O)NCc1nc(-c2ccc(C(F)(F)F)cc2)no1 | -1 | -3.5 | 2 | i | 7 | x | -6.0 | 17 | 6 | -1.3
Cc1ccc(NC(=O)COc2ccc(-n3cnnn3)cc2)cc1C | -11 | 3.5 | -11 | x | -1 | -3 | x | x | x | x
O=C(c1ccccc1F)N1CCc2ccccc21 | -12 | 2.8 | -5 | x | -12 | -4 | x | x | x | x
CC1=C(C(=O)OCc2ccccc2)C(c2ccc(C)o2)C2=C(CCCC2=O)N1 (stereo not given) | 11 | 2.4 | -1 | x | 3 | -5 | x | x | x | x
Cn1c(=O)oc2cc(S(=O)(=O)N3CCC(C(=O)NCC4COc5ccccc5O4)CC3)ccc21 (stereo not given) | x | x | 1 | i | x | 2 | -0.4 | 8 | 12 | -4.4
O=C(Nc1ccnc(-c2cccnc2)n1)c1cccs1 | 1 | u | 0 | i | 25 | 2 | -2.1 | -13 | 3 | -0.7
O=C(Nc1nc(-c2ccc(F)cc2)cs1)C1CCN(C(=O)c2ccc(F)cc2)CC1 | 55* | -3.1 | x | i | -1 | -5 | -1.8 | -13 | -8 | 10
CC(=O)c1ccc(NC(=O)c2cc(C)no2)cc1 | -3 | -4.1 | -63 | i | 1 | 1 | -0.2 | 10 | 12 | -2.1
Cc1ccc(S(=O)(=O)N2CCC(C(=O)Nc3nnc(C4CCCC4)s3)CC2)cc1 | -9 | -4.4 | 1 | i | -5 | -4 | -41 | 7 | -6 | -3.5
CCOC(=O)N1CCN(C(=O)c2ccc(C)c(S(=O)(=O)N3CCCCC3)c2)CC1 | -14 | 4.9 | -9 | i | -5 | -1 | -1.1 | 2 | 3 | -3.9
CC(=O)Nc1ccc(OCC(O)Cn2nc(C)c(Br)c2C)cc1 (stereo not given) | -5 | u | -7 | x | 35 | -3 | x | x | x | x
CC(=O)Nc1ccc(NC(=O)c2nc(S(=O)(=O)Cc3ccccc3)ncc2Cl)cc1 | 0 | 2.5 | 2 | i | -12 | -24 | 2.0 | -2 | 20 | 1.1
Additional entries
SMILES | T cruzi repl | RanGTP-Impb inh | ALR H2O2 inh | FGF22 binding | Calb FLC | Beta apoptosis | MLL AF4-AF9 inh | rRNA inh HTS | rRNA inh HTS OD600 | rRNA inh HTS RFP
O=C(Nc1cc([N+](=O)[O-])ccc1Cl)c1ccc2c(c1)OCO2 | 2 | 0.1 | 1 | i | -18 | 0 | -4.1 | 12 | 13 | 0.3
COC(=O)c1ccccc1NC(=O)CN1CCN(c2ccccn2)CC1 | 5 | 0.5 | -11 | i | -5 | 0 | -8.6 | -22 | -27 | -3.1
Cc1ccc2nc(NCCCNC(=O)c3cnccn3)c(C#N)cc2c1 | 3 | 1.7 | -18 | x | 5 | -7 | x | 12 | 8 | 4.5
O=C(CSc1nc2[nH]ncc2c(=O)n1-c1ccccc1)N1CCCCCC1 | 14 | -3.1 | -7 | x | -25 | 3 | x | x | x | x
CC(C)C[C@@H]1CN=C(N)N1C[C@@H]1CCCN1C[C@H](C)N1C[C@@H](Cc2ccccc2)N(CCCC2CCCC2)C1=N | x | x | 9 | i | x | 1 | 20 | -56 | -79 | -30
COc1cc(/C=N\NC(=O)CNC(=O)C(c2ccccc2)c2ccccc2)ccc1O | -8 | -1.2 | x | i | -1 | 0 | -34 | -8 | -5 | 1.6
CCCCOCCOCCOCCCC | x | x | 1 | i | x | 2 | x | 0 | 5 | 1.3
COc1cc(OC)nc(NC(=O)NS(=O)(=O)c2ccc(F)cc2)n1 | -1 | u | 0 | i | -4 | -2 | -0.5 | 13 | 12 | 5.1
COc1ccc(OCc2cccc(C(=O)NN)c2)cc1 | 4 | 3.0 | -1 | x | 11 | -6 | -0.1 | x | x | x
CCOc1ccccc1C(=O)N(Cc1ccc(C)o1)C1CCS(=O)(=O)C1 (stereo not given) | 4 | 3.6 | -7 | i | 15 | 0 | -1.7 | 4 | 10 | -1.8
COC/C=C/C1=CC2=CC(=O)C(C)(OC(=O)c3cnc4ccccc4n3)C(=O)C2=CN1C1CC1 (stereo not given) | -9 | -4.5 | -21 | i | 6 | -1 | -9.6 | -9 | -9 | -1.3
O=C(NC1CCCC1)C(c1cccs1)N(Cc1ccco1)C(=O)c1csnn1 (stereo not given) | -2 | 1.9 | x | x | 11 | -5 | x | x | x | x
Cc1ccc(Nc2nc(C)c3c(n2)CC(C)CC3=O)c(C)c1 (stereo not given) | 12 | 5.7 | -2 | i | 4 | 1 | -0.6 | 5 | 5 | -0.5
C=CCNc1sc(C(=O)c2ccccc2)c(N)c1C#N | 16 | 2.2 | x | x | 31 | -5 | x | x | x | x
N=C1/C(=C\c2ccc(OC(=O)c3ccc(F)cc3)cc2)C(=O)N=C2SC(N3CCCC3)=NN12 | -8 | -4.9 | 5 | i | 0 | -3 | 4.1 | -12 | -1 | -15
CN(C)/C=N/c1[nH]ncc1C#N | -12 | -2.6 | -5 | i | -1 | -3 | -1.4 | 2 | 10 | -0.9
CCN(CC)C(=O)C1CC(=O)OC1(C)C (stereo not given) | -1 | -15 | 0 | i | -7 | 1 | -33 | 2 | 6 | -2.6
Cc1c(NC(=O)C2CC(c3cccc(Br)c3)=NO2)c(=O)n(-c2ccccc2)n1C (stereo not given) | -3 | -1.8 | 1 | i | 16 | -6 | -0.2 | 11 | 4 | 0.9
Cc1ccc2sc(N(CCCN(C)C)C(=O)c3ccc(S(=O)(=O)N(C)Cc4ccccc4)cc3)nc2c1C | 60* | 6.0 | -7 | i | 24 | x | 3.6 | -57 | -68 | -12
CCCOc1ccc(C2NC(=O)CCC2[N+](=O)[O-])cc1 (stereo not given) | -5 | 3.9 | 0 | i | 0 | x | 1.9 | 5 | 2 | -0.7
COc1ccc(N2CCN(CC(=O)Nc3ccccc3SC)CC2)cc1 | 1 | 0.4 | 6 | i | 50 | -1 | 11 | 13 | 22 | -1.7
O=C(O)CCc1ccc(-c2ccc(Cl)cc2)n1NC(=O)c1ccc(O)cc1 | -4 | 3.3 | 15 | i | -5 | -9 | 1.4 | 5 | -3 | -2.8
CC1CC(C)CN(c2cc(=O)n(Cc3ccc(F)cc3)c(=O)[nH]2)C1 (stereo not given) | 1 | 60* | -2 | i | -5 | 4 | 4.3 | 5 | 3 | 2.4
COc1cc(CO)ccc1OCC(=O)Nc1ccc(Br)cc1 | -5 | -2.2 | x | x | 11 | -3 | -0.5 | 15 | 3 | 3.1
CCCOP(=O)(c1ccc(N(C)C)cc1)C(O)c1c(Cl)cccc1Cl (stereo not given) | 10 | -1.6 | 1 | i | 22 | -3 | -1.4 | -7 | -8 | 3.6
Other structures
SMILES | T cruzi repl | RanGTP-Impb inh | ALR H2O2 inh | FGF22 binding | Calb FLC | Beta apoptosis | MLL AF4-AF9 inh | rRNA inh HTS | rRNA inh HTS OD600 | rRNA inh HTS RFP
O=C(N/N=C/c1ccc(OC(=O)c2ccccc2)cc1)c1cccc(O)c1 | 4 | -7.4 | 28 | i | -1 | -6 | 1.6 | 19 | 14 | 5.2
COc1ccccc1N1CCN(C(CNS(=O)(=O)c2ccccc2)c2ccccc2)CC1 (stereo not given) | -3 | 3.1 | 0 | i | 10 | 6 | 0.6 | -28 | -34 | 7.9
Cc1ccc(NC(=O)COc2ccc3c(c2)CCC3)nc1 | -12 | 3.3 | 18 | i | -2 | x | 0.2 | 3 | -1 | -0.6
CNC(=O)CN1C(=O)NC2(CCc3ccccc32)C1=O (stereo not given) | -6 | 0.0 | 31 | x | -3 | -10 | x | x | x | x
Cc1cc(C)n(CCC(=O)N/N=C/c2c(O)ccc3ccccc23)n1 | 25 | 36* | x | i | 40 | 93* | -4.7 | 5 | -1 | -2.3
COc1ccc(C2Nc3ccccc3C(=O)N2c2ccc(C)cc2)cc1Cn1cc([N+](=O)[O-])cn1 (stereo not given) | -6 | 0.4 | -6 | i | -13 | 13 | 7.9 | 3 | 0 | 1.2

Shown as a hit in RanGTP-Impb inh (from the list above):
canonical_smiles | RanGTP-Impb inh | ALR H2O2 inh | FGF22 binding | MLL AF4-AF9 inh | rRNA inh HTS | rRNA inh HTS OD600 | rRNA inh HTS RFP
CC1CC(C)CN(c2cc(=O)n(Cc3ccc(F)cc3)c(=O)[nH]2)C1 (stereo not given) | 60* | -2 | i | 4.3 | 5 | 3 | 2.4
Cc1cc(C)n(CCC(=O)N/N=C/c2c(O)ccc3ccccc23)n1 | 36* | x | i | -4.7 | 5 | -1 | -2.3
